# Rango-impB inh: prevents formation of the Rango-importin beta complex; Potency, µM (series often up to 92.2 µM), for the others: top-dose inhibition of complex formation; Q14974; Rango CFP/YFP FRET sensor + importin beta, 45 min; 0.031% of 340,000 active; active = rising FRET ratio curve, often small or poorly fitted; inconclusive = mostly compound fluorescence or quenching in the first reads; inactive = flat curves in all reads;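 note: potency is the fitted concentration of half-maximal effect; 0% = DMSO wells and 100% = buffer wells lacking importin beta; nearly all actives have a fitted effect of over 15% in size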
#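 FRET biosensor Rango (snurportin 1 IBB between N-terminal EYFP and C-terminal Cerulean), 50 nM in PBS/1 mM DTT/0.02% Tween-20/0.1% BSA, preincubated 5 min RT with compound; 0.125 microM importin beta added, 45 min RT, CFP/YFP FRET ratio read.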
# GLA inh pH 4.5: alpha-galactosidase A (human) inhibition, pH 4.5; P06280; 230,000 tested, under 10 active; purified enzyme, 4-MU-alpha-Gal fluorescence, pH 4.5; activity change, negative = inhibition, % at 105 µM; inconclusive = small, poorly fitted or top-dose-only inhibition, or a rising curve; inactive = flat fitted curve, though single readings scatter; no compound was filed as active;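 note: 0% = full activity with enzyme and -100% = basal without enzyme; dose as in the result columns while the protocol names 77 µM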
# Target sequence (P06280 whole entry, looked up): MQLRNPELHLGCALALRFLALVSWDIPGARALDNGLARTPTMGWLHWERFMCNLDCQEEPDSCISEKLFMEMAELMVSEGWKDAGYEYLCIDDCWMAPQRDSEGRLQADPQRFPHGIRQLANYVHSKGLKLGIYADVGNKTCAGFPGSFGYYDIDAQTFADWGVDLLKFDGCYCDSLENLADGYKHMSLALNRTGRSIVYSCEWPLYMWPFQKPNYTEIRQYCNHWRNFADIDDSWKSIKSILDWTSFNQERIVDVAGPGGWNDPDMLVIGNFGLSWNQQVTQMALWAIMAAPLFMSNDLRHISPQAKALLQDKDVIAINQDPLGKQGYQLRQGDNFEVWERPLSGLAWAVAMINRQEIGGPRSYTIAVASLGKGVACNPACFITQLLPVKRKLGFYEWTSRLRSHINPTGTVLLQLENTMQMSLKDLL
# miR-21 FLuc: raises the signal of a miR-21 reporter. HeLa miR-21 FLuc reporter, luciferase, 48 h. Potency, µM (doses to about 38.3 µM), for the others: at the highest dose reporter change, positive = more light. 340,000 tested, under 10 active. AID 2288; active = well fitted rising curve with a large enough effect; inconclusive = small, poorly fitted or top-dose-only effect; inactive = no such curve, though single readings can be large or run the other way;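 note: % of control where 0% means no effect; miR-21 action dims this reporter so a rising signal means less miR-21 action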
#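 HeLa miR-21-FLuc reporter line, endogenous miR-21; 2000 cells/well in DMEM/10% FBS; compound titration up to ~40uM final, 48 h, 37 degree Celsius; luciferase detection reagent, 15 min lysis, CCD luminescence.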
# Rango dissoc inh: prevents RanGTP from dissociating the Rango-importin beta complex; 0.071% of 340,000 active; AID 540253; Biochemical FRET Rango-importin beta, RanGTP-induced dissociation; Potency, µM (series often up to 46.1 µM), inactives show top-dose activity change, negative = inhibition; active means falling FRET ratio curve, often poorly fitted, with flat reads before Ran was added; inconclusive means other falling curves, or compound fluorescence or quenching; inactive means flat or rising ratio curve;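 note: potency is the fitted concentration of half-maximal effect; % of control where 0% means no effect; nearly all actives have a fitted effect of over 45% in size; -100% = wells without RanGTP and RCC1; the record marks most hits as doubtful in a second field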
#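 Rango/importin beta premix (0.1/0.25 uM final), PBS + 1 mM DTT + 0.02% Tween-20 + 0.1% BSA; cpd 5 min RT; FRET pre-read; + RanGTP-RCC1 (0.6 uM Ran, 2 mM GTP, 0.2 uM RCC1); 45 min RT; FRET post-read, ex 430, em 486/530 nm.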
# An asterisk follows results filed as active; ? = inconclusive; · = no result given; & = joins results of further samples; [ ] = another dose, or the depositor's remark.
SMILES,Rango-impB inh,GLA inh pH 4.5,miR-21 FLuc,Rango dissoc inh
O=C(O)c1ccccc1NS(=O)(=O)c1ccc(NN=Cc2cccc(Cl)c2)c([N+](=O)[O-])c1,1.8%,·,·,-1%
COc1ccc(NC(=S)NNC(=O)Cn2nc([N+](=O)[O-])cc2C)cc1,-2.6%,0,4%,3%
c1ccc(Nc2nc(Nc3ccccc3)nc(N3CCNCC3)n2)cc1,2.9%,·,6%,4%
CCOC(=O)c1csc(-c2ccc([N+](=O)[O-])cc2)n1,2.1%,3,-46%,-1%
CCC1CCCCN1C(=S)Nc1ccc(SC(F)F)cc1 (stereo not drawn),-4.8%,-3,-2%,18%
Cc1ccc(Nc2nc(-c3c(C)nc4ncccn34)cs2)cc1,0.5%,-6,16%,-5%
Cc1cccc2c(=O)c(C(=O)NCCCN3CCOCC3)c[nH]c12,1.4%,-1,1%,-9%
Cc1c(CCC(=O)NCCCN2CCCC2=O)c(=O)oc2cc(O)ccc12,?,·,-5%,?
COc1ccc(OC)c(/C=C/C(=O)OCC(=O)Nc2cccc(Oc3ccccc3)c2)c1,?,17,-16%,-4%
CC(C)=N/N=C1/NC(=O)C(CC(=O)Nc2cc(Cl)ccc2C)S1 (stereo not drawn),0.7%,1,-7%,-5%
COC(=O)c1ccc([N+](=O)[O-])c(CS(=O)(=O)c2ccc(Cl)cc2)c1,-4.1%,·,2%,6%
CCn1c2ccccc2c2cc(NC(=O)CN3CCCC3)ccc21,0.1%,·,-13%,3%
COCC1CCCN(Cc2nc(-c3ccc4c(c3)OCO4)no2)C1 (stereo not drawn),4.2%,-1,-50%,-1%
OC1(c2ccc3c(c2)OCO3)CCN(Cc2ccc(F)cc2)CC1,1.4%,5,-5%,14%
COc1ccc(OC)c(NC(=O)CSc2ccccc2)c1,-13%,-3,-9%,32%
Cc1nc2ccccn2c1C(=O)/C=C/c1ccc(F)cc1,5.5%,0,-53%,8%
COc1ccccc1OCCCOc1ccc(C)cc1Br,4.5%,0,-69%,1%
COc1ccc(C2C(C(N)=O)=C(C)Nc3nc(-c4ccccc4OC)nn32)cc1OC (stereo not drawn),-1.7%,-10,-9%,-6%
Cn1c(CC(=O)Nc2ccc(F)cc2)c(Sc2ccccc2)c2ccccc21,-1.1%,-10,-3%,17%
CC(C)N1CC(O)=C(c2nc3ccccc3c(=O)[nH]2)C1=N,-5.3%,-3,-35%,8%
CCOc1cc(Cl)c(NC(=O)CC)cc1OCC,0.7%,5,-3%,-15%
CC(C)[C@@H]1N[C@]2(C(=O)Nc3ccccc32)[C@@H]2C(=O)N(c3cccc(C(F)(F)F)c3)C(=O)[C@@H]21,-3.9%,-2,-9%,-2%
C#CC(=O)N(c1ccc(OC)cc1OC)C(C(=O)NC1CCCC1)c1cccs1 (stereo not drawn),1.4%,-10,13%,-6%
O=C(Nc1ccc(F)cc1F)c1cc(-c2ccc3c(c2)OCO3)on1,?,·,-10%&-13%,3%
COc1cc(C(=O)OCC(=O)N2CCN(S(=O)(=O)c3ccc(C)cc3C)CC2)c([N+](=O)[O-])cc1OC,-0.3%,·,·,-7%
C=CCN1C(=O)C(CC(=O)O)SC1=Nc1ccc(C)cc1 (stereo not drawn),2.6%,-9,2%,-3%
CCOC(=O)/C=C/C(=O)Nc1ccc(-c2nnc3n2CCCCC3)cc1,0.2%,·,7%,0%
CCCc1cc(=O)oc2cc(C)cc(OC(C)C(=O)NCc3cccnc3)c12 (stereo not drawn),-1.1%,·,-6%,38%
CCOc1ccc(NC(=O)NCC2CCN(Cc3ccc(F)cc3)CC2)cc1,-2.2%,·,-5%,14%
O=C(c1cccc(Br)c1)N1CCN(S(=O)(=O)N2CCCCCC2)CC1,1.1%,·,5%,7%
O=C(CCC1CCCCC1)Nc1c2c(nn1-c1ccc(F)cc1)CS(=O)(=O)C2,1.2%,3,-2%,-3%
NC(=O)c1cc(S(=O)(=O)N2CC=C(c3ccccc3)CC2)cs1,?,·,8%,-2%
Cc1ccc(C(c2nnnn2CS(=O)(=O)c2ccc(C)cc2)N2CCN(c3ncccn3)CC2)cc1 (stereo not drawn),-0.9%,-11,-6%,13%
Cc1cc(N2CCN(C)CC2)nc(-c2ccccc2O)n1,3.4%,-15,-6%,1%
O=C1Nc2ccc(Br)cc2C1=Nc1cccnc1,-1.2%,3,19%,5%
CC(/C=N/Nc1nc(N2CCCCC2)nc(N2CCCCC2)n1)=C\c1ccccc1,?,-2,-6%,1%
O=C(Cc1ccccc1)Nc1ccnn1C1CCN(Cc2nccs2)CC1,-0.9%,·,4%,-9%
COc1ccc(S(=O)(=O)N2CCN(C(=O)c3c(C)nn(-c4ccccc4)c3C)CC2)cc1,0.3%,·,·,4%
CCc1cccc(NC(=O)C2CCCN(c3ncnc4c3nc3n4CCCCC3)C2)c1 (stereo not drawn),1.8%,·,20%,8%
Clc1cccc(Cl)c1/C=N/Nc1c(Cl)cncc1Cl,-0.2%,-9,20%,21%

# Gathered by group: the compounds so far with an aryl thioether with sulfur outside any ring
SMILES,Rango-impB inh,GLA inh pH 4.5,miR-21 FLuc,Rango dissoc inh
CCC1CCCCN1C(=S)Nc1ccc(SC(F)F)cc1 (stereo not drawn),-4.8%,-3,-2%,18%
COc1ccc(OC)c(NC(=O)CSc2ccccc2)c1,-13%,-3,-9%,32%
Cn1c(CC(=O)Nc2ccc(F)cc2)c(Sc2ccccc2)c2ccccc21,-1.1%,-10,-3%,17%

# (listing goes on)
SMILES,Rango-impB inh,GLA inh pH 4.5,miR-21 FLuc,Rango dissoc inh
Cc1cc(OCCCC(=O)NCCc2nnc3ccccn23)ccc1Cl,1.6%,·,·,-2%
COc1cccc(C(=O)c2ncc(C(F)(F)F)cc2Cl)c1,3.7%,-3,-3%,0%
CCN(CC)S(=O)(=O)N1CCC(C(=O)NCCN2CCOCC2)CC1,-3.1%,-4,0%,-14%
COC(=O)Nc1ccc(S(=O)(=O)N2CCCCCC2)cc1,-0.9%,-3,-1%,1%
Cc1cccc(NC(=O)COc2ccccc2C(=O)NC(C)c2ccccc2)c1 (stereo not drawn),-0.4%,·,-1%,-7%
Cc1ccc(C(C)(C)NC(=O)C2CCC(=O)N(Cc3ccccc3F)C2)cc1 (stereo not drawn),-1.7%,·,-8%,-3%
COc1ccc(S(=O)(=O)N(C)CC(=O)Nc2ccccc2OC)cc1,0.6%,3,0%,-12%
Cn1cccc1/C=C1\SC(=O)N(CC(=O)Nc2ccc(F)cc2)C1=O,?,-5,0%,?
O=C1C=C(NCc2ccc(Cl)cc2)CC(c2ccco2)C1 (stereo not drawn),?,-1,-5%,-4%
Cc1c(C#N)c2ccccc2n1CC(=O)NCc1cccnc1,-1.7%,1,-3%,-7%
Nc1cc(S(=O)(=O)N2CCOCC2)ccc1Oc1ccc(F)cc1,-1.5%,-3,8%,57%
C/C(=N\NC(=O)CSc1nc2ccccc2c(=O)n1-c1ccccc1C)c1cccs1,3.1%,-1,-9%,8%
COCCSc1nnc(NC(=O)C2CCCO2)s1 (stereo not drawn),7.1%,7,-30%,2%
Cc1noc(NC(=O)c2ccc(Cl)cc2)c1Cl,0.9%,5,-32%,-13%
CC(C)CNC(=O)CN1C(=O)NC(Cc2c[nH]c3ccccc23)C1=O (stereo not drawn),2.4%,2,0%,0%
C/C(N)=C(/C#N)C(=O)CSc1cc(C)c2cc(C)cc(C)c2n1,-0.2%,6,3%,-4%
CCOc1ncccc1C(=O)Nc1ccc(S(=O)(=O)Nc2nc(C)cc(C)n2)cc1,-0.7%,·,·,-4%
O=C(O)C1CCC1C(=O)Nc1nc(-c2ccc(Cl)s2)cs1 (stereo not drawn),-1.3%,0,-3%,-11%
Cc1ccc(C(=O)Nc2cccc3cccnc23)cc1Br,5.6%,·,·,-3%
COc1cccc(-c2ccc(C#N)c(OC(=O)c3ccc(Cl)cc3)n2)c1,0.1%,?,0%,12%
CCOC(=O)c1c(NC(=O)CN2C(=O)c3ccccc3C2=O)sc(Cc2ccc3c(c2)OCO3)c1C,1.3%,1,-4%,-1%
O=C(COC(=O)CNC(=O)c1ccco1)Nc1ccc(F)cc1,0.1%,-1,0%,0%
CCOC(=O)N1CCC(N2Cc3cccc(C(=O)Nc4ccc(N(CC)CC)cc4C)c3C2=O)CC1,2.2%,·,5%,25%
CCCCC1=CC2=CC(=O)C(C)(OC(=O)CC)C(=O)C2=CN1CCc1c[nH]c2ccccc12 (stereo not drawn),?,13&-5,0%,?
COc1ccc(C2=CCC3CCCCN3C2)cc1OC (stereo not drawn),0.7%,·,·,?
COc1ccc(S(=O)(=O)NC(CC(=O)NCc2ccccc2OC)c2ccco2)cc1 (stereo not drawn),-0.7%,-2,8%,-13%
Cc1oc(-c2cccs2)nc1CN1CCN(C2CCCC2)C(CCO)C1 (stereo not drawn),2.4%,6,-5%,3%
O=C(Nc1ccc(Cl)cc1)Nc1nnc(Cc2ccc([N+](=O)[O-])cc2)s1,-1.8%,1,-1%,3%
COc1cccc(CC2CC(=O)N(c3ccc4c(C)cc(=O)oc4c3)C2=O)c1 (stereo not drawn),0.2%,-4,-2%,7%
CC1CCC/C(=N\NC(=O)Nc2ccccc2)C1 (stereo not drawn),0.0%,6,-34%,-8%
CCOc1ccc(Oc2ccc(C(F)(F)F)cc2N)cc1,6.5%,2,-28%,19%
O=C(COC(=O)c1ccc(S(=O)(=O)N2CCCC2)cc1)Nc1cccnc1Cl,0.7%,8,-1%,-14%
COc1cc2[nH]c(=S)nc(NCc3cccs3)c2cc1OC,-0.8%,-7[21.1 µM],12%,4%
CC(=O)Nc1ccc(OC(=O)c2cc3cc(Br)ccc3oc2=O)cc1,1.2%,0,-5%,-5%
COc1ccc(C)cc1S(=O)(=O)Nc1cccc(-c2ccc(N3CCCCCC3)nn2)c1,?,·,-7%,1%
COc1ccc(NC(=O)C(NC(=O)Cc2cccs2)c2ccccc2)cc1 (stereo not drawn),-4.8%,4,-11%,23%
COc1ccc(-c2[nH]ncc2CN(C)Cc2c(C)n[nH]c2C)c(OC)c1,-3.0%,9,5%,0%
CCc1ccc(OCC(O)CN2CCCC2)cc1 (stereo not drawn),1.5%,·,4%,-12%
CC1=Nn2c(nnc2-c2cccs2)SC1,3.4%,9,0%,-4%
COc1ccc(-c2cn(-c3ccc(C)cc3)c(=O)n2CC(=O)Nc2ccc(OC)cc2OC)cc1,?,-2,-13%,-1%
CC1=CC(c2ccccc2)NC(=S)N1 (stereo not drawn),3.2%,2,-3%,3%
COCCNC(=O)c1ccc(NC(=O)C2(c3ccccc3)CCCC2)cc1,0.3%,6,-1%,-5%
CSCCC1NC(=O)C(C(C)=NNC(N)=O)=C1O (stereo not drawn),-2.8%,·,·,-19%
CC1Cc2ccccc2N1C(=O)CSc1nnc2sc3ccccc3n12 (stereo not drawn),-0.4%,1,-7%,-7%
Cc1cc(OCc2cccc(Cl)c2)c(C)cc1CN1CCOCC1,-4.8%,-9,-19%,8%
Cc1ccc(S(=O)(=O)N2CCCCC2CCNC(=O)C(=O)NCCc2ccco2)cc1 (stereo not drawn),-0.7%,·,·,18%
COc1ccc(C(C(=O)NC2CCCCC2)N(CC2CCCO2)C(=O)CNC(=O)c2ccco2)cc1 (stereo not drawn),0.5%,2,-4%,-1%
Cc1ccc(C)c(-n2c(-c3csc(C)c3C)n[nH]c2=S)c1,0.8%,1,7%,-2%
CCN(CC(=O)N1CCCCC1)S(=O)(=O)c1ccccc1,0.4%,·,-2%,3%

# Structural class, the compounds so far containing a CF3 group.
SMILES,Rango-impB inh,GLA inh pH 4.5,miR-21 FLuc,Rango dissoc inh
CC(C)[C@@H]1N[C@]2(C(=O)Nc3ccccc32)[C@@H]2C(=O)N(c3cccc(C(F)(F)F)c3)C(=O)[C@@H]21,-3.9%,-2,-9%,-2%
COc1cccc(C(=O)c2ncc(C(F)(F)F)cc2Cl)c1,3.7%,-3,-3%,0%
CCOc1ccc(Oc2ccc(C(F)(F)F)cc2N)cc1,6.5%,2,-28%,19%

# Not all compounds are listed (hit frequency here may not be typical).
